# Sa ugtP lethal: growth inhibition of ugtP-null S. aureus, primary screen, RN4220 ugtP deletion, OD600; 16 h; some inactives read as strong as hits; growth inhibition, % (no concentration beside the values); 0.54% of 330,000 active;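 active = z-score under -3 and OD600 up to 0.15 on both plates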;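 note: plate controls were untreated wells for no effect and antibiotic for full effect; wells of about 80 µL received 100 nL stock; the first replicate is given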
# Mtb hypoxia rep: PubChem AID 1159583. 0.1% of 300,000 active. fluorescence inhibition, % (concentration not given with the values). M. tuberculosis hypoxia-regulated fluorescent reporter, fluorescence;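 active = 35 to 45% if threefold the growth effect, above 45% if 1.5-fold the growth effect; inactive = the rest, general growth blockers included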;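 note: wells of about 50 µL received 100 nL stock; 0% = vehicle wells and 100% = reference inhibitor wells; whole bacteria with a GFP reporter of the hypoxia response; strong numbers were not always called active; many hits fall short of the cut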
# Bead autofluor: counter-screen for toxin protease inhibitors: compound fluorescence; AID 624483; compound autofluorescence counterscreen, microsphere flow cytometry; stronger effect = higher value; 3.1% of 360,000 active; fluorescence intensity (test concentration not listed);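 active = at least 3 SD above the mean of all compounds, about 16000 in these data; inconclusive = too few beads counted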;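 note: 100 nL of 1 mM stock went into each well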
# RN4220 kill: growth inhibition of S. aureus RN4220, primary screen, OD600 | AID 1259311, 2017 | 16 h | inhibition, % (concentration not given with the values) | 0.33% of 330,000 active;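 active = z-score of -3 or lower and OD600 up to 0.18 on both plates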;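 note: plate controls were untreated cells for no effect and reference antibiotic for full effect; stock transfer was 100 nL into about 80 µL; one replicate is shown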
# BJeLR lethal: MLPCN primary cell-based screen for lethality selective to Ras in HRASV12 cells; inhibition, % (concentration not given with the values); BJeLR (HRASV12) viability, CellTiter-Glo ATP luminescence, 48 h; reference of the scale not given here; 0.17% of 300,000 active;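 active = replicate mean above 50%; inconclusive = above 50% but judged a plate artefact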;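 note: 50 nL library stock added to about 25 µL; numbers are from one replicate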
# PrP UTR inh: inhibition of PrP 5' UTR reporter expression | inhibition, % (test concentration not listed) | cell-based PrP 5' UTR mRNA reporter, plate reader | AID 488862, 2010 | 0.35% of 340,000 active;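 active = every replicate at 50% or more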;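 note: 0 = median of the neutral control wells; tested in H4 reporter cells; numbers are from one replicate; inactives centre near -14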
# Mtb hypoxia rep growth: further read-out of Mtb hypoxia rep, marked with its call; growth inhibition, %; measured here: M. tuberculosis growth (absorbance);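 0% = vehicle and 100% = reference antibiotic; read after six days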
# An asterisk follows results filed as active; u = inconclusive; x = not tested or not shown; & = joins results of further samples.
Molecule	Sa ugtP lethal	Mtb hypoxia rep	Mtb hypoxia rep growth	Bead autofluor	RN4220 kill	BJeLR lethal	PrP UTR inh
CCC(=O)Nc1nnc(SCC(=O)Nc2ccc3c(c2)OCCO3)s1	-4	-5	5	5705	-2.3	-2	-3
O=C(O)CC1(CC(=O)N2CCC(C(=O)O)CC2)CCCC1	4	-3	-2	2739	4.6	-4	-1
Cc1[nH]ccc(=O)c1OCc1ccccc1	-1	-3	2	4657	-5.5	2	-8
O=C(c1cccs1)N1CCC(c2nc3c(nnn3Cc3ccccc3)c(=O)[nH]2)CC1	19	12	4	8446	1.9	-3	-42
CCOC(=O)NC1(C(F)(F)F)C(=O)N(Cc2ccccn2)C2=C1C(=O)CC(C)(C)C2 (centres undefined)	9	7	11	16536*	6.5	-6	-4
O=C(COC(=O)c1ccc([N+](=O)[O-])o1)Nc1cccc2ccccc12	18	8	0	3316	15	-2	-4
CN1CC(=O)Nc2ccccc2C1=O	5	5	2	3853	2.8	2	-43
CCOC(=O)c1ccc(NC(=O)c2ccco2)cc1	8	6	12	3836	5.3	-10	-58
CC(=O)Nc1ccc(/C=N\NC(=O)CNS(=O)(=O)c2ccc([N+](=O)[O-])cc2)cc1	x	x	x	2686	x	-2	-22
COc1ccc(OC)c(C(C)NC(=O)C23CC4CC(CC(C4)C2)C3)c1 (centres undefined)	0	-11	-7	x	1.1	-2	-12
Cc1ccc(NC(=S)NCCC(c2ccccc2)c2ccccc2)c(C)c1	17	x	x	2407	3.2	2	-17
C=CCNC(=S)N/N=C/c1ccc(N(CC)Cc2ccccc2)cc1	x	x	x	1987	x	3	2
COc1ccc(C2C(C#N)=C(N)Oc3c2sc2nc(C)cc(C)c32)cc1 (centres undefined)	x	x	x	3470	x	10	-41
CCN1C(=O)/C(=C\N(C(C)=O)c2ccccc2)OC1=S	8	9	7	13000	6.2	11	-38
CN(C)CCCN(Cc1ccccc1)C(=S)Nc1ccc(OC(F)F)cc1	-2	18	10	2628	0.8	-5	-5
CC(C)NC(=O)C(=O)Nc1ccc2c(c1)N(S(=O)(=O)c1cccs1)CCC2	-5	-9	-2	5926	3.6	5	-13
O=S(=O)(Cc1ccccc1Cl)N1CCN(Cc2ccc3c(c2)OCO3)CC1	10	3	10	6192	6.3	-10	-32
N#Cc1ccc(COC(=O)CN2C(=O)NC3(CCCC3)C2=O)cc1	0	6	5	5607	2.5	x	-17
Cc1ccc(NC(=O)CCC(=O)NNC(=O)CCc2ccccc2)c(C)c1	6	13	2	4088	7.5	x	-29
O=C(NCc1ccccc1)C1=C[C@H](C2CCCCC2)C[C@H](OCCCCO)O1	-5	12	6	2875	-18	-3	-18
CN1CCN(C(=O)CCN2C(=O)/C(=C\c3ccc(F)cc3)SC2=S)CC1	3	16	14	3480	3.0	x	-16
CC(=O)Nc1ccc(-c2csc(Nc3ncccn3)n2)cc1	x	x	x	4150	x	-5	-84
O=C(O)c1cccc(S(=O)(=O)Nc2cccc(S(=O)(=O)N3CCCCCC3)c2)c1	0	3	0	3779	4.1	-6	9
CC(C)C[C@H](NC(=O)c1[nH]cnc1C(=O)N[C@@H](Cc1ccccc1)C(=O)OC(C)(C)C)C(=O)OCc1ccccc1	x	x	x	3903	x	9	-5
COC(=O)/C(C#N)=C/c1c(Oc2cc(C)cc(C)c2)nc2ccccn2c1=O	9	8	0	x	4.3	-4	x
COc1ccc(CCNc2ccc(C(CC(N)=O)NC(=O)Cc3ccc(Br)cc3)cc2[N+](=O)[O-])cc1 (centres undefined)	-4	-1	7	4209	-2.4	-8	1
Cc1ccccc1S(=O)Cc1ccc(C(=O)NCCCN2CCCCC2)o1 (centres undefined)	13	2	5	5118	4.8	-9	-14
COc1ccc(N(CC(=O)NCC2CCCO2)C(=O)CCC(=O)Nc2nccs2)cc1 (centres undefined)	4	-4	6	2296	4.1	3	-13
COc1ccc(NC(=O)CCC(=O)c2cccs2)cc1S(=O)(=O)Nc1ccccc1Cl	3	4	3	2983	-1.1	-12	-10
O=C(CCCOc1ccccc1)NC(=S)Nc1ccccc1	3	1	17	4677	1.0	2	-23
COc1ccc(CCNCc2c(OC)ccc3ccccc23)cc1OC	0	-9	9	3764	0.2	-1	-10
CC(CC(=O)Nc1cc(C)ccn1)=NNC(=O)C(=O)NC(C)C	5	-7	8	x	-1.2	x	x
Cc1ccc2nc(SCC(=O)N(C)C3CCS(=O)(=O)C3)[nH]c2c1 (centres undefined)	2	3	3	7846	2.2	x	-38
CC1(C)CC2(CC(c3ccccc3)Oc3cc(O)ccc32)NC(=S)N1 (centres undefined)	3	3	-7	2545	5.4	-9	-15
CCOC(=O)C(=CNc1ccc(OC)cc1[N+](=O)[O-])C(=O)OCC	-4	1	4	4415	3.1	3	-31
NS(=O)(=O)c1ccc(CCNC(=O)c2ccc(S(=O)(=O)N3CCCCC3)cc2)cc1	-1	-9	3	4635	-0.9	17	-4
COc1ccc(C(=O)NNC(=O)CSc2nnc(C3CC3)n2C)cc1	1	5	3	5467	1.2	-18	-10
O=C(NCc1cn2ccccc2n1)C1CCC(=O)N(Cc2ccccc2F)C1 (centres undefined)	8	-8	-5	4202	3.9	7	-10
COc1ccc(C=NNC(=O)c2ccc3c(c2)OCO3)c(C(=O)O)c1OC	-4	-1	15	x	-5.4	x	x
CCOC(=O)c1ccc(S(=O)(=O)Nc2cc(S(=O)(=O)Nc3ccc(OC)cc3)ccc2O)cc1	-2	8	9	3511	2.7	x	-5
CC1NC(=O)NC(=O)C1Br (centres undefined)	-4	10	4	3599	7.1	x	-26
CC(C(=O)NC1CCCCCC1)N(c1ccccc1)S(C)(=O)=O (centres undefined)	17	5	4	9938	5.8	1	-3
CC(C)=CCC/C(C)=C/COc1ccc2ccc(=O)oc2c1	-7	x	x	5401	3.4	1	-6
CC(C)C(OC(=O)c1ccco1)C(=O)NC1CCCC1 (centres undefined)	-5	4	-2	5241	-2.1	-5	-34
O=C1/C(=C/c2ccco2)Cc2ccccc21	-3	19	5	2030	12	14	-17
Cc1cccc(C=NNc2cc(N3CCOCC3)nc(N3CCOCC3)n2)c1	-11	-11	-3	x	5.3	x	x
COc1ccc(NC(=O)c2ccco2)cc1NC(=O)c1ccco1	-3	-4	-1	9627	2.5	-12	-1
C=CCC(CC(=O)NCCO)C(=O)NC(COC(=O)C(CC=C)Cc1ccc(F)cc1)Cc1ccccc1 (centres undefined)	5&8&4	12&17&1	4&6&3	x	4.2&7.4&9.6	x	x
O=C(NC1CCCC1)c1cc(S(=O)(=O)N2CCCC2)ccc1Cl	7	12	5	4848	3.5	-13	-15
COc1cc(NC(=O)C(C)Oc2ccccc2)cc(OC)c1 (centres undefined)	6	x	x	4245	-0.4	1	4

# Next structures
Molecule	Sa ugtP lethal	Mtb hypoxia rep	Mtb hypoxia rep growth	Bead autofluor	RN4220 kill	BJeLR lethal	PrP UTR inh
O=C(CC(=O)c1ccccn1)c1ccccc1	9	17	10	2889	4.6	x	-130
CCc1cc(=O)oc2cc(C)cc(OC(C)C(=O)NCCCN3CCOCC3)c12 (centres undefined)	2	9	-4	4569	2.5	-9	-3
COC(=O)c1ccn(C(=O)c2ccc(Cl)cc2)n1	3	-2	2	9517	2.1	14	-23
Cc1ccc(C(=O)Nn2cnnc2)cc1Cl	7	6	13	4153	4.5	-2	-10
Nc1c(Cl)ncnc1NN=Cc1cccc(O)c1	11	5	3	x	1.2	x	x
C[C@@H]1CCC2[C@](C)(CO)[C@@H](O)CC[C@]2(C)[C@@]12C[C@](CO)(CC(=O)O)CO2 (some centres undefined)	5	-2	-1	3737	4.5	-2	-2
CN1CCN(C2=C(Cl)C(=O)C(c3cnc(N4CCCCC4)s3)=C(Cl)C2=O)CC1	-9	11	7	19751*	6.0	-12	12
CCc1nnc(NC(=O)CSc2ccc(-c3nc4ccccc4[nH]3)cn2)s1	13	1	0	8892	5.2	-5	-69
O=C(Nc1ccccc1)NC1CC2CCC(C1)N2 (centres undefined)	4	2	-8	10423	-0.2	6	-13
O=C(NCCCN1CCC(Cc2ccccc2)CC1)C1CCN(S(=O)(=O)N2CCC3(CC2)OCCO3)CC1	-1	-4	5	4777	0.7	6	-25
CCOC(=O)C1CCCN(C(=O)c2sc3nc(C)nc(N4CCOCC4)c3c2C)C1 (centres undefined)	2	3	8	11071	2.7	16	-4
Cc1c(NC(=O)c2ccccc2NC(=O)COc2ccccc2)cccc1C(=O)O	1	5	1	6697	0.7	6	-30
CC(=O)c1c(C)oc2ccc(NS(=O)(=O)c3cccs3)cc12	4	9	4	3616	10	-8	-14
Cc1cccc(NN=C2c3ccccc3-c3ccccc32)c1	x	x	x	2283	x	12	6
Cc1c(NC(=O)Nc2ccc(F)cc2)c(=O)n(-c2ccccc2)n1C	4	4	-4	3905	1.7	-4	-21
O=[N+]([O-])/C(C(Cl)=C(Cl)Cl)=C1\Nc2ccccc2O1	2	-8	2	5658	4.3	-6	-15
Cc1ccc(OCC(=O)Nn2cnnc2)c(Br)c1	-2	-10	11	8667	1.0	-13	2
O=C(NCc1c(O)ccc2ccccc12)c1ccccc1	2	8	14	3560	3.5	-8	-13
CC(C)(C)S(=O)(=O)c1cnc2c(-c3ccc(F)cc3)cnn2c1N	-15	2	10	21191*	6.6	-1	-43
COc1ccc(OC)c(C(=O)COC(=O)CNC(=O)C2CCCCC2)c1	10	19	7	3358	5.4	-8	-19
OC(Cn1cnnc1)c1ccccc1 (centres undefined)	x	x	x	2980	x	-10	-18
COc1ccc(-n2c3c(cc(C(=O)N4CCN(CCO)CC4)c2=O)C(=O)CC(C)(C)C3)cc1	2	1	4	9498	1.0	5	-12
COc1ccc(CC(=O)OCC(=O)NC(=O)NC2CCCCC2)cc1	14	x	x	2370	-2.3	1	-11
COc1ccc(C(c2c(NC(=O)c3ccco3)sc(C)c2C)N2CCOCC2)cc1OC (centres undefined)	0	-7	-1	u	3.5	x	-6
O=C(NCCCn1ccnc1)c1ccc(N2CCCCCC2)c([N+](=O)[O-])c1	-2	6	6	2530	3.4	71*	-9
CC(C)N(Cc1ccccc1)C(=O)COC(=O)c1cc(S(=O)(=O)N(C)C)ccc1N1CCCC1	0	3	0	3054	0.4	x	-22
Cc1ccc(C)c(S(=O)(=O)Nc2ccc3cn[nH]c3c2)c1	6	1	-1	5331	6.0	x	-11
CC(C)/C=C1\CC/C(=C\c2cccnc2)C1=O	17	0	11	4648	6.5	1	-25
CC1(C)Cc2c(c(-c3ccccc3)nc(N3CCOCC3)c2C(N)=O)CO1	0	15	9	2918	7.3	7	-9
CC/C(=N/Nc1ccc(Cl)cc1)c1cnnc(SC)n1	x	x	x	2241	x	7	-24
COc1ccc(-c2[nH]ncc2/C=N\NS(=O)(=O)c2ccccc2)cc1OC	x	x	x	5612	x	1	-21
COc1ccc(CNC(=S)N/N=C/c2ccncc2)cc1	x	x	x	2669	x	3	-18
Fc1ccccc1N1CCN(CCCc2ccccc2)CC1	16	-4	-1	3515	4.4	1	-16
O=C1COc2ccc(C(=O)CSc3nnc(NCc4ccccc4)s3)cc2N1	-13	-10	-4	4144	-1.1	4	-3
COc1ccc(C=NS(=O)(=O)c2ccc(C)cc2)cc1	5	10	0	x	5.3	x	x
CC12CCC(=O)N1C(C(=O)NCCN1C(=O)S/C(=C\c3ccc(OC(F)F)cc3)C1=O)CS2 (centres undefined)	4	1	0	4253	1.6	-3	-13
O=C(O)CCc1nc2cc3ccccc3cc2[nH]1	4	0	9	4952	6.2	-6	-5
N#CCCN(C(=O)COC(=O)c1ccc(S(=O)(=O)N2CCCCCC2)cc1)c1ccccc1	4	-12	-18	u	-2.7	-3	-14

# Results in Sa ugtP lethal, for 2 of the compounds above:
molecule | Sa ugtP lethal
O=C(O)CCc1nc2cc3ccccc3cc2[nH]1 | 4
N#CCCN(C(=O)COC(=O)c1ccc(S(=O)(=O)N2CCCCCC2)cc1)c1ccccc1 | 4

# Screening data: PubChem, several laboratories
